# GIV Gai3 FP: inhibitors of GIV GBA-motif binding to rat Galpha-i3 | P08753 | Galpha-i3/FITC-GIV peptide fluorescence polarization, 90 min; active compounds read low; scaled: aluminum fluoride 0%, vehicle 100% | percent of control (FP), % (concentration not given with the values) | 0.42% of 210,000 active;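 active = replicate mean at 85% of control or lower, very high polarization wells dropped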;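 note: wells of about 15 µL received 100 nL stock; the first replicate is given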
# Target sequence (P08753 whole entry, looked up): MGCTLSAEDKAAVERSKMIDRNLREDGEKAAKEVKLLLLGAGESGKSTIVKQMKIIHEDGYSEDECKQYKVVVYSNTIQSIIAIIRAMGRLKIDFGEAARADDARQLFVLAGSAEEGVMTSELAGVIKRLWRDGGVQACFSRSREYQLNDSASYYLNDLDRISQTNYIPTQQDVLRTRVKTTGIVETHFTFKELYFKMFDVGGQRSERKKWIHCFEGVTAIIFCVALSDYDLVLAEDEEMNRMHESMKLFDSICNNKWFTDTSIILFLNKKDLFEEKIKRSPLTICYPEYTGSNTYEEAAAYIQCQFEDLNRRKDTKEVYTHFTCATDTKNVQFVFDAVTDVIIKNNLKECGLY
# Numbers without * were called inactive.
SMILES,GIV Gai3 FP
COc1ccc(/C(O)=C2\C(=N)N(c3ccc([N+](=O)[O-])cc3C)C3=C(C(=O)CCC3)C2c2cc(OC)c(OC)c(OC)c2)cc1 (stereo not drawn),114
CC1=C(C(=O)Nc2ccc(Cl)cc2)C(c2ccncc2)C(C#N)=C(SCC(=O)Nc2ccc(Cl)cc2)N1 (stereo not drawn),107
O=C(Nc1cccc(-c2ccc3ccccc3n2)c1)c1c(F)cccc1F,103
COc1cc(OC)c(OC)cc1/C=C1N=C(/C=C/c2cccc([N+](=O)[O-])c2)OC\1=O,112
Cc1ccc(C(=O)N/C(=C\c2cn(-c3ccccc3)nc2-c2ccc(F)cc2)C(=O)NCc2ccccc2)cc1,107
CC(=O)N[C@H]1[C@H](OC2CCC3(C)C(C=CC4C3CCC3(C)C(C(C)CCCC(C)C)CCC43)C2)O[C@H](CO)[C@@H](O)[C@@H]1O (stereo partly drawn),109
COc1ccc(N2CCN(c3nc(OC)nc(N4CCOCC4)n3)CC2)cc1,108
CCc1ccc(-n2c(=S)sc3c(=O)n(-c4ccc(F)cc4)c(=S)[nH]c32)cc1,111
Cc1cc(NC(=O)/C(=C/c2ccc3c(c2)OCO3)NC(=O)c2ccc(Br)cc2)ccc1Br,105
Cc1ccc(C)c(NC(=O)c2cc(S(=O)(=O)N3CCc4ccccc43)ccc2F)c1,109
COc1ccc(N2C(=S)N=C(Nc3cccc(C)c3)C23CCCCC3)cc1,100
O=C(c1cc2n(n1)C(C(F)(F)F)CC(c1ccc3c(c1)OCO3)N2)N1CCN(c2cccc(Cl)c2)CC1 (stereo not drawn),98
Cc1nc(SCC(=O)c2ccc(O)c(O)c2)c(C#N)c(CC(C)C)c1C(N)=O,104
O=C(NC1CCN(C(=O)C2CC2)C1)C1CC1 (stereo not drawn),104
Cc1nnc(-c2cc(S(=O)(=O)NC3CCCCCCC3)c(C)n2C)o1,100
O=C1CN(C(=O)c2ccccc2)C(c2ccc(Cl)cc2Cl)N1O (stereo not drawn),110
CCC(C)NC(=O)CSc1nnc2n(CCC(=O)NC3CCCCC3)c(=O)c3ccccc3n12 (stereo not drawn),100
CCOc1ccc(NC(=O)C(=O)NCCN2CCN(C(=O)c3ccc(C)cc3)CC2)cc1,108
COCCOC(=O)C1=C(C)NC(SCC(=O)Nc2cccc(OC)c2)=C(C#N)C1c1ccccc1Cl (stereo not drawn),102
COc1ccc(C2c3cccn3CCN2S(=O)(=O)c2ccc3c(c2)OCCO3)cc1 (stereo not drawn),105
CCOc1nc(NCc2ccccc2)nc(NCc2cccnc2)n1,103
CCC(C)NC(=O)c1cc(NS(=O)(=O)c2cc(C)c(C)cc2C)cnc1N1CCNCC1 (stereo not drawn),102
O=C(NCc1csc(-c2ccccc2)n1)[C@H]1CSCN1C(=O)c1ccc(F)c(F)c1,99
CC1(C)CC(=O)C2=C(C1)c1c(ccc3ccccc13)NC2c1cn(Cc2cccc(C(F)(F)F)c2)c2ccccc12 (stereo not drawn),103
CCOC(=O)C1=C(C)NC2=C(C(=O)C(C(=O)OCC)C(c3ccc(OC)cc3)C2)C1c1ccc(F)cc1 (stereo not drawn),102
COc1ccc([N+](=O)[O-])cc1N(CC(O)CN(CC(C)C)CC(C)C)S(=O)(=O)c1ccccc1 (stereo not drawn),108
COc1ccc(F)cc1-c1cc(N2CCN(C(=O)Nc3ccc4c(c3)OCCO4)CC2)ncn1,98
N#CC1=C(N)OC2=C(C(=O)CCC2)C1c1cc(Cl)cc(Cl)c1OC(=O)N1CCOCC1 (stereo not drawn),106
Cc1ccc(NC(=O)CSc2nc3ccccc3c(=O)[nH]2)cc1,105
CCN(CC)P(=NN=Nc1ccc2nnnn2n1)(N(CC)CC)N(CC)CC,104
O=c1cc(Cn2nc3c(-c4nc(-c5ccccc5)no4)cccn3c2=O)nc2ccccn12,90
Cc1c(C(c2ccc(O)c([N+](=O)[O-])c2)c2c(C)n(C)n(-c3ccccc3)c2=O)c(=O)n(-c2ccccc2)n1C,110
CCOc1ccc2c(c1)C(=NNC(N)=O)c1cc(OCC)ccc1-2,111
COc1ccc(Br)cc1C1C2=C(CC(C)(C)CC2=O)OC2=C1C(=O)CC(C)(C)C2,110
Cc1cc(NC(=O)CCc2nc(CSc3n[nH]c(-c4ccccc4)n3)no2)ccc1Br,106
O=C(CN1C2=NCCCN2c2ccccc21)c1cccc([N+](=O)[O-])c1,118
CC1(C)CC(NC(=O)CCC(=O)N2C(C)(C)CC(N)CC2(C)C)CC(C)(C)N1,110
c1ccc(-c2noc(-c3cc(N4CCCC4)nc4ccccc34)n2)cc1,115
CCOc1c(Br)cc(C2C(C(=O)N3CCCCC3)=C(C)NC3=C2C(=O)CC(C)(C)C3)cc1OC (stereo not drawn),104
CCOC(=O)c1c(CNc2cccc(Cl)c2)n(-c2ccccc2)c2cc(Br)c(OC)cc12,104

# Given with bars between the fields: part of the list above.
compound | GIV Gai3 FP
CC1(C)CC(NC(=O)CCC(=O)N2C(C)(C)CC(N)CC2(C)C)CC(C)(C)N1 | 110
Cc1ccc(C)c(NC(=O)c2cc(S(=O)(=O)N3CCc4ccccc43)ccc2F)c1 | 109

# Next section:
SMILES,GIV Gai3 FP
Cc1cccc(NC(=O)c2sc3nc(C)nc(N4CCN(c5ccccn5)CC4)c3c2C)n1,101
COc1ccc(-c2[nH]nc3c2C2(C(=O)Nc4ccc(C)c(Br)c42)C(C#N)=C(N)O3)cc1 (stereo not drawn),116
O=[N+]([O-])c1ccc2c(c1)C(N1CCOCC1)/C(=C\COc1ccc3ccccc3c1Br)O2 (stereo not drawn),104
CNc1cc(Nc2cccc(C)c2)c2c3c(onc13)-c1ccccc1C2=O,110
c1ccc(C2(c3ccccc3)OC(CN3CCCCC3)=Nc3ccccc32)cc1,102
Cc1nnc(-c2c(C)[nH]c(C)c2S(=O)(=O)NCCC2=CCCCC2)o1,99
CCOC(=O)c1c(C)[nH]c(CCC(=O)NCCc2c[nH]c3ccccc23)c1C,109
O=C(NC1CCN(Cc2ccccc2)CC1)c1cccc(-c2cc(N3CCCC3)ncn2)c1,106
Cc1cc2c(cc1C(=O)Nc1ccccc1)OCCCO2,105
C=CCn1ccc2c(OCC(=O)Nc3ccc4c(c3)OCO4)cccc2c1=O,104
CC1=C(C(=O)N2CCOCC2)C(c2ccc3c(c2)OCO3)C2=C(CC(C)(C)CC2=O)N1 (stereo not drawn),102
CC(=O)c1c(C)n(S(=O)(=O)c2ccc(C(C)(C)C)cc2)c2ccc(NS(=O)(=O)c3ccc(C(C)(C)C)cc3)cc12,106
Cn1c(=O)c2nc(S(=O)(=O)CCC(=O)Nc3ccc(F)cc3)n(C)c2n(C)c1=O,102
Cc1ccc2c(c1)N(C(=O)Cn1c(=O)n(C3CC3)c(=O)c3nscc31)CCO2,114
Brc1ccc(-c2nc(-c3ccc(-c4nc(-c5ccc(Br)cc5)[nH]c4-c4ccccc4)cc3)c(-c3ccccc3)[nH]2)cc1,113
CCOC(=O)c1c(NC(=O)C(C)Sc2nnc(CNC(=O)c3ccc(C)c([N+](=O)[O-])c3)n2C)sc2c1CCCC2 (stereo not drawn),107
O=C(c1ccc2c(c1)OCO2)N1CCN(c2ncnc3c2nnn3-c2ccccc2)CC1,98
COC(=O)Nc1ccc(S(=O)(=O)N2CCC(C(=O)N3CCCC(C)C3)CC2)cc1 (stereo not drawn),119
Cc1ccc(-c2ccc(N3CCC(N4CCCCC4)CC3)nn2)cc1S(=O)(=O)N1CCOCC1,105
CC1(C)Cc2c(c(-c3ccccc3)nc3oc(C(=O)c4ccc(Br)cc4)c(N)c23)CO1,119

# Given tab-delimited: 5 of the compounds above
smiles	GIV Gai3 FP
CCOC(=O)c1c(NC(=O)C(C)Sc2nnc(CNC(=O)c3ccc(C)c([N+](=O)[O-])c3)n2C)sc2c1CCCC2 (stereo not drawn)	107
O=C(c1ccc2c(c1)OCO2)N1CCN(c2ncnc3c2nnn3-c2ccccc2)CC1	98
COC(=O)Nc1ccc(S(=O)(=O)N2CCC(C(=O)N3CCCC(C)C3)CC2)cc1 (stereo not drawn)	119
Cc1ccc(-c2ccc(N3CCC(N4CCCCC4)CC3)nn2)cc1S(=O)(=O)N1CCOCC1	105
CC1(C)Cc2c(c(-c3ccccc3)nc3oc(C(=O)c4ccc(Br)cc4)c(N)c23)CO1	119

# (listing goes on)
SMILES,GIV Gai3 FP
COc1ccc(NS(=O)(=O)c2ccc3c(c2)c(=O)n(CCC(=O)N2CCCC2)c(=O)n3C)cc1,108
N#CC1(C#N)[C@H](c2ccccc2)[C@@H](C(=O)c2ccc(F)cc2)N2c3ccc(Cl)cc3C=C[C@@H]21,114
CCN(CC)CC(O)Cn1c2ccccc2c2ccccc21 (stereo not drawn),105
CC(C)c1cc(C2CCCN2C(=O)C2CCCC2)on1 (stereo not drawn),99
CC(C)n1c(=O)sc2cc(S(=O)(=O)N3CCN(C(=O)c4ccc(Cl)nc4)CC3)ccc21,108
O=C(O)c1cc(N2C(=O)/C(=C/c3ccc([N+](=O)[O-])cc3)C=C2c2ccccc2)ccc1O,118
COc1ccc([C@@H]2[C@@H](C(C)=O)N3c4ccccc4C=C[C@@H]3C2(C#N)C#N)cc1,120
CN(C)c1ncncc1N1CCC(C(=O)NC2CC2)CC1,103
COc1ccc(CNC(=O)C2CCCN(c3ncnc4c3oc3ccccc34)C2)c(OC)c1 (stereo not drawn),101
CCCCC(=O)Nc1cnc(N2CCNCC2)c(C(=O)N2CCC(C(=O)OCC)CC2)c1,100
CC(C)CCNC(=O)C1CCCN1C(=O)c1ccc(NS(=O)(=O)c2ccc(F)cc2)cc1 (stereo not drawn),104
CCCCCCOc1ccc(-c2ncc(CCCCC)cn2)cc1,121
COc1ccc(-c2csc(=Nc3ccccc3)n2CCc2ccccc2)cc1Br,119
CCc1cc2c(N3CCN(c4ccc(F)cc4)CC3)ncnc2s1,101
CCCCCCCOC(=O)c1ccc(-c2ccc(-c3ccc(C(=O)OCCCCCCC)cc3)cc2)cc1,118
COC(=O)N1c2ccccc2CCc2ccccc21,114
CCn1cnc2cc(-c3noc(C(C)NS(=O)(=O)c4ccc(C)cc4)n3)ccc21 (stereo not drawn),97
CCOC(=O)c1ncn2c(=O)c3c(C(=O)OCC)ncn3c(=O)c12,112
O=C(Nc1ccc(F)c(-c2nnc(-c3ccccc3)o2)c1)Nc1ccc(F)cc1F,102
CCC(=O)Nc1ccc(-c2cc(C(=O)NCc3cccnc3)c3ccccc3n2)cc1,111

# Copied from the entries so far for reference:
SMILES,GIV Gai3 FP
COC(=O)N1c2ccccc2CCc2ccccc21,114
CCn1cnc2cc(-c3noc(C(C)NS(=O)(=O)c4ccc(C)cc4)n3)ccc21 (stereo not drawn),97
CCOC(=O)c1ncn2c(=O)c3c(C(=O)OCC)ncn3c(=O)c12,112
O=C(Nc1ccc(F)c(-c2nnc(-c3ccccc3)o2)c1)Nc1ccc(F)cc1F,102
CCC(=O)Nc1ccc(-c2cc(C(=O)NCc3cccnc3)c3ccccc3n2)cc1,111

# The list continues:
SMILES,GIV Gai3 FP
CCCOC1OC(COC(C)=O)C(OC(C)=O)C(OC(C)=O)C1NC(C)=O (stereo not drawn),107
CCN1CCN(c2cc(-c3nc(-c4ccccc4)no3)c3ccccc3n2)CC1,114
CC(C)OP(=O)(OC(C)C)C(N)CC12CC3CC(CC(C3)C1)C2 (stereo not drawn),106
CCN(CC)c1nc(C)nc2sc(C(=O)N3CCN(c4ccc(F)cc4)CC3)c(C)c12,102
O=C1C(Nc2ccccc2)=CC(c2ccccc2[N+](=O)[O-])N1c1ccccc1 (stereo not drawn),106
CCCc1cc(C2CCCN2C(=O)Cn2nc(C(F)(F)F)cc2C)no1 (stereo not drawn),105
Cc1cc(-n2c(C)nc3ccccc3c2=O)ccc1NC(=O)C(C)Oc1cccc(Cl)c1 (stereo not drawn),112
N#CC1(C#N)[C@H](c2ccccc2Cl)[C@@H](C(=O)c2ccccc2)N2c3ccc(F)cc3C=C[C@@H]21,115

# This is a subset; rates above refer to the full screens.
